Source: PubChem
2A firefly: FMDV 2A StopGo reporter, firefly signal | HEK cells with a luciferase reporter of 2A StopGo recoding | Potency, µM (top dose mostly 57.5 µM), for the others: at the highest dose signal change, negative = less light | 120,000 compounds, 0.23% hits; active = well fitted falling curve with a large enough effect; inconclusive = small, poorly fitted or top-dose-only effect; inactive = no such curve, though single readings can be large or run the other way; note: nearly all actives have a fitted effect of over 60% in size; overnight with compound
StopGo RLuc: FMDV 2A StopGo reporter, Renilla signal; HEK cells with a luciferase reporter of 2A StopGo recoding; Potency, µM (series often up to 57.5 µM), for inactives: at the highest dose signal change, negative = less light; 120,000 compounds, 0.32% hits; active means well fitted falling curve with a large enough effect; inconclusive means small, poorly fitted or top-dose-only effect; inactive means no such curve, though single readings can be large or run the other way; note: nearly all actives have a fitted effect of over 55% in size; overnight with compound
* hit, by the source's call; ? = inconclusive; [ ] = dose if it differs, or a comment. % is set by controls: 0 for no effect and ±100 for the full control effect; potency is the fitted concentration of half-maximal effect. A portion of the library. The share of hits here may be higher or lower than overall.

Molecule | 2A firefly | StopGo RLuc
CC(C)COC(=O)COc1ccc2c(=O)c(Oc3ccccc3Br)coc2c1 | 5% | -4%
Cc1ccc(CNC(=O)CNS(=O)(=O)c2cccs2)cc1 | 16% | -2%
CCN(CC)C(=O)c1cccc2c(=O)c(C)c(-c3ccccc3)oc12 | 6% | 17%
Cc1ccc(C2NC(=O)N(C)C3=C2C(=O)N(c2ccc(C)cc2)C3)cc1 (stereo not given) | 38%[activator] | 4%
Cc1ccc(NC(=O)Cc2ccc(NC(=O)N3CCCCc4ccccc43)cc2)cc1 | -3% | 19%
CCN1C(=O)c2ccccc2Sc2ccc(NC(=O)c3ccc(Cl)cc3)cc21 | -12% | 1%
COc1ccc(C)cc1S(=O)(=O)N1CCN(c2cc(N3CCCCC3)nc(C)n2)CC1 | -11% | 39%[activator]
CN1C(=O)c2ccccc2NC1c1cc2ccccc2[nH]c1=O (stereo not given) | -5% | -8%
O=C(CNC(=O)N1CC(=O)Nc2ccccc21)Nc1ccc2c(c1)OCO2 | 0% | -16%
O=C(CSc1nc(Cl)nc2nc[nH]c12)NCCc1ccc(O)cc1 | -2% | -7%
O=C(Nc1ccccc1C(F)(F)F)C1CCN(S(=O)(=O)Cc2ccccc2)CC1 | -12% | -5%
Cc1ccc(-c2cc(-c3ccccc3)c(C#N)c(SCC(O)CS(=O)(=O)Cc3ccccc3)n2)cc1 (stereo not given) | -13% | -1%
COc1ccc(-c2nc(CN3CCCC3c3ccc(OC)cc3)co2)cc1 (stereo not given) | -5% | -11%
N#Cc1ccccc1NC(=O)c1ccco1 | 9% | 4%
O=C(Nc1c(C(=O)N2CCC(N3CCCCC3)CC2)oc2ccccc12)c1c(F)cccc1F | 1% | 0%
Cc1ccc(CN(C)C(=O)CCc2c[nH]c3ccccc23)o1 | 0% | 134%[activator]
CCOCCCNC(=O)c1ccccc1-c1ncc(-c2ccccc2F)o1 | 22% | 52%[activator]
Cc1ccc(C)c(NC(=O)CN2C(=O)CSc3nc(C)cc(C)c32)c1 | ? | -14%
Cc1coc2c(C)c3oc(=O)c(CC(=O)NCc4ccccc4)c(C)c3cc12 | -14% | 36%[activator]
CCOc1ccc(N2C(=O)CS(=O)(=O)C23C(=O)N(Cc2cccc(Cl)c2)c2ccccc23)cc1 (stereo not given) | 8% | 5%
CCCNC(=O)c1[nH]cnc1C(=O)NC1CCCC1 | 0% | 22%
Cc1nc(SCC(=O)Nc2cccc(C#N)c2)n(CC(C)C)c1C | 2% | 8%
COc1ccc(Nc2nc3ccccc3nc2NS(=O)(=O)c2ccccc2)cc1OC | 60%[activator] | 34%[activator]
Cc1ccc(C(NC(=O)C(C)C)c2cccnc2)cc1C (stereo not given) | 5% | 6%
CC(C)C(NC(=O)c1ccc(S(=O)(=O)N(C)C)cc1)c1ccc2c(c1)OCCCO2 (stereo not given) | 4% | 18%
O=S(=O)(NCC(c1ccco1)N1CCOCC1)c1cc(F)ccc1F (stereo not given) | -6% | 11%
O=C(C(Sc1nc2cc(S(=O)(=O)N3CCCCC3)ccc2o1)c1ccccc1)N1CCCC1 (stereo not given) | -13% | 53%[activator]
Cc1nc(Nc2ccc(F)cc2F)sc1C(=O)Nc1ccccc1 | 199%[activator] | 4%
NC(=O)C1CN(CC(=O)Nc2cccc(Cl)c2)c2ccccc2O1 (stereo not given) | 0% | 2%
CC1=C(C(=O)OC2CCCCC2)C(c2ccc(O)cc2)C2=C(CC(C)(C)CC2=O)N1 (stereo not given) | -7% | 98%[activator]
O=C(CN1c2cccc3cccc(c23)S1(=O)=O)Nc1cccc(S(=O)(=O)N2CCOCC2)c1 | -9% | 116%[activator]
Cc1ccccc1CC1C(=O)Nc2ccc(Br)cc21 (stereo not given) | 13% | -2%
CC1CCN(C(=O)C(C)Nc2ccc3oc(C4CC4)nc3c2)CC1 (stereo not given) | 6% | -9%
COc1ccc2c(c1)c1c(c(=O)n(-c3ccccc3C)c(=O)n1Cc1ccccc1C)n2C | -12% | -14%
CN1CCCC(n2nc(Cc3ccc(Cl)cc3)c3ccccc3c2=O)CC1 (stereo not given) | -24% | -18%
Cc1ccc(CN(C)C(=O)Cc2c[nH]c3ccccc23)o1 | 0% | 56%[activator]
CCOc1ccc(-n2c(=O)c3c(C)c(C)sc3n(CC(=O)Nc3ccc(CC)cc3)c2=O)cc1 | -18% | -14%
Cc1cccc(C(=O)Nc2cccc(OCc3cc(=O)n4c(C)csc4n3)c2)c1 | 9% | 0%
CCCC(C)NC(=O)COC(=O)c1c(C)n(C2CC2)c2ccc(OC)cc12 (stereo not given) | -4% | 3%
O=C(O)CCC(=O)CCC(=O)c1cccs1 | 10% | 2%
COc1ccccc1NC(=O)C1=C(C)Nc2nc(-c3ccc(F)cc3)nn2C1c1ccccn1 (stereo not given) | 15% | 22%
Nc1c(C(=O)NCc2ccccc2)nnn1Cc1cccc(Br)c1 | 4% | -9%
Clc1cccc(Nc2nc(NC3CCCCCC3)nc3c2cnn3-c2ccccc2)c1 | -9% | -1%
CC(=O)c1ccc(OCc2cccc(C(N)=O)c2)cc1 | 179%[activator] | 14%
C=CCNC(=S)NNC(=O)C(C)C | 22% | 13%
CCNC(=O)c1ccccc1OCc1ccc(Cl)cc1 | 7% | -9%
COc1ccccc1Cc1nc2ccccc2nc1SCC(=O)Nc1ccccc1C(F)(F)F | -12% | -10%
CCCNC(=O)C1CCN(Cc2cc3ccccc3n2Cc2ccccc2)CC1 | -18% | -10%
CC1CCC(NC(=O)c2ccc(CS(=O)(=O)c3cccc(C(F)(F)F)c3)o2)CC1 (stereo not given) | -5% | 10%
COC(=O)c1ccc(Oc2nc3c(c(=O)n(C)c(=O)n3C)n2C(C)C)cc1 | -13% | -9%
CCCC1CCC(c2ccc(OC(=O)c3ccco3)cc2)CC1 (stereo not given) | 12% | -5%
COc1ccc(OC)c(NCc2cccn2-c2nnc(N3CCC(C)CC3)s2)c1 | 69%[activator] | 0%
Cc1cc(-c2ccc(C)c(S(=O)(=O)NCC3CCN(Cc4ccc(F)cc4)CC3)c2)on1 | -18% | 48%[activator]
COc1ccc(OC)c(S(=O)(=O)NCc2cccn2Cc2cccc(C)c2)c1 | 4% | 340%[activator]
Nc1ncnc(Nc2cccc(Cl)c2)c1[N+](=O)[O-] | 25% | 30%[activator]
Nc1n[nH]c(CC(=O)N(Cc2ccco2)C2(C(=O)Nc3ccccc3)CCCCC2)n1 | 2% | -2%
COc1ccc(CCn2c(Br)nc3c(=O)n(C)c(=O)n(C)c32)cc1 | 0% | 8%
COc1cccc(CNC(=O)CN(C(=O)C2=C(C)OCCS2)c2ccc(Cl)cc2)c1OC | -6% | 24%
O=C(CCn1c(=O)c2sccc2n(Cc2ccc(F)cc2Cl)c1=O)NCc1ccc2c(c1)OCO2 | 91%[activator] | 48%[activator]
COc1cccc(N(CC(=O)N2CCC(C)CC2)S(=O)(=O)c2ccc(C)cc2)c1 | 11% | 365%[activator]

Going on with the list.
Molecule | 2A firefly | StopGo RLuc
O=C(Cc1ccc(-c2csc(Nc3ccc(F)cc3)n2)s1)N1CCOCC1 | 34%[activator] | 3%
CCSc1ccccc1C(=O)Nc1cccc(C)c1C | 0% | 13%
CC(=O)N1CCN(c2nc3c(C)ccc(Cl)c3s2)CC1 | 63%[activator] | 19%
Cc1nnc2c3ccccc3nc(Nc3ccc(F)cc3Cl)n12 | -7% | -1%
Cc1ccc(-n2ncc3c(NCC4CCCO4)ncnc32)cc1 (stereo not given) | 32%[activator] | 21%
Fc1ccc(N2CCN(c3nc4ccccc4c4nc(-c5cccnc5)nn34)CC2)cc1 | -13% | -10%
Cc1ccc(-c2nc(CC(=O)NCc3ccc(F)c(C)c3)cs2)o1 | 1% | -4%
O=C(c1cn[nH]c1-c1ccccc1)N1CCN(S(=O)(=O)c2ccc3c(c2)CCC3)CC1 | 15% | 21%
Cc1cc(N2CCC(C)CC2)nc2ccc(NC(=O)c3ccccc3)cc12 | 10% | -9%
COc1ccc(S(=O)(=O)NCCc2sc(-c3ccccc3)nc2C)cc1OC | 13% | 274%[activator]
Cc1ccc(OCCSc2nnc(-c3cccs3)o2)cc1 | 7% | -6%
CC(C)(CNC(=O)C(c1ccccc1)c1ccccc1)CNC(=O)C(c1ccccc1)c1ccccc1 | -5% | 6%
O=C(CNS(=O)(=O)c1cccs1)N1CCN(c2ccccc2F)CC1 | 156%[activator] | 12%
COc1ccc(C(=O)CCC(=O)OCC(=O)c2ccc(Cl)cc2)cc1 | 2% | 17%
Cc1ccc(-c2noc(CN(C(=O)COc3cc(C)cc(C)c3C)C(C)C)n2)cc1 | 0% | 1%
CN(C)S(=O)(=O)N(CC(=O)Nc1ccc(Br)cc1F)c1ccccc1 | 11% | 28%
CCCc1cc(=O)oc2cc(OCC(=O)NCc3ccncc3)c(Cl)cc12 | -4% | -6%
Cc1cc(O)c2c(C)c(CC(=O)NCCCOC(C)C)c(=O)oc2c1 | 12% | 1%
Cc1ccc(CN2CC(C(=O)Nc3ccncc3)CC2=O)cc1 (stereo not given) | 10% | 23%
CS(=O)(=O)N1CCCc2cc(C(=O)Nc3cccc(-c4nnc5n4CCCCC5)c3)ccc21 | 19% | 34%[activator]
CCOc1cc(C2c3c(oc4ccccc4c3=O)C(=O)N2c2ccccn2)ccc1O (stereo not given) | 104%[activator] | 0%
N#Cc1cc2c(nc1SCC(=O)Nc1ccc(C(F)(F)F)cc1)C1CCN2CC1 | ? | -8%
CCCNC(=O)CNC(=O)Cc1c[nH]c2ccccc12 | 1% | -3%
Cc1ccccc1OCC(=O)Nc1ccc(-c2nc3cc(Cl)cc(Cl)c3o2)cc1 | -18% | 7%
CCc1cccc(N2C(=O)N(CC(=O)NCc3cccc(OC)c3OC)c3ccccc3S2(=O)=O)c1 | -10% | 0%
CCOc1cccc2cc(S(=O)(=O)c3ccc(Cl)c(Cl)c3)c(=O)oc12 | -14% | -24%
COC(=O)c1ccc(NC(=O)CN(c2cccc(C(F)(F)F)c2)S(C)(=O)=O)cc1 | -19% | 20%
NC(=O)c1ccc[n+]([O-])c1 | 2% | -1%
CCOc1c(Cl)cc(Cl)cc1CNCc1ccccn1 | 22% | 11%
C(=N/N=C\c1ccccn1)/c1ccccn1 | 61% | -24%

The closing five compounds of the section above lead into the next:
Molecule | 2A firefly | StopGo RLuc
CCOc1cccc2cc(S(=O)(=O)c3ccc(Cl)c(Cl)c3)c(=O)oc12 | -14% | -24%
COC(=O)c1ccc(NC(=O)CN(c2cccc(C(F)(F)F)c2)S(C)(=O)=O)cc1 | -19% | 20%
NC(=O)c1ccc[n+]([O-])c1 | 2% | -1%
CCOc1c(Cl)cc(Cl)cc1CNCc1ccccn1 | 22% | 11%
C(=N/N=C\c1ccccn1)/c1ccccn1 | 61% | -24%
CC(CCc1ccc(O)cc1)NCCc1ccc(O)c(O)c1 (stereo not given) | -15% | -17%
CC(C)c1nn(C)c(N(C)C)c1CNCc1ccc2c(c1)OCO2 | -3% | -1%
COCCNC(=O)c1cc2n(n1)CCCN(Cc1ccc(C)cc1)C2=O | 1% | 1%
COc1ccc(C2(C)NC(=O)N(Cc3nc(-c4cccs4)oc3C)C2=O)cc1OC (stereo not given) | ? | ?
CCc1ccc(NC(=O)c2cc(C)nn2-c2ccccc2)cc1 | 0% | ?
Cn1ccnc1CN(C(=O)c1ccc(F)c(C(F)(F)F)c1)C1CC1 | 12% | 23%
O=C(c1cc2ccccc2oc1=O)N(Cc1cccc(Cl)c1)Cc1ccco1 | 172%[activator] | 159%[activator]
O=C(CN1C(=O)CCn2nc(-c3ccccc3)cc21)NCc1ccccc1 | -11% | -12%
[2H]C1=C([2H])C([2H])(CC(=C)C)[N+](C)(C)C([2H])(CC(=C)C)C1[2H] (stereo not given) | 10% | 11%
Cc1cccc(OCC(=O)Nc2ccc3oc(=O)ccc3c2)c1 | 1% | -11%
O=C(O)c1ccc(Nc2ccccc2)c([N+](=O)[O-])c1 | 10% | 14%
Cc1ccc(/C=C/C(=O)c2ccc(-c3ccccc3)cc2)o1 | 67%[activator] | 3%
COc1cc(-c2nnc(SCC(=O)Nc3ccc(F)c(Cl)c3)o2)cc(OC)c1OC | 14% | -2%
Cc1cc(=O)oc2cc(NC(=O)Cc3ccc(Cl)c(Cl)c3)ccc12 | 22% | 2%
CCOc1ccc(NC(=O)c2cc3c(=O)n4cccc(C)c4nc3s2)cc1 | -10% | 12%
COc1cccc(C2=NS(=O)(=O)N(C)C(C(=O)NCC(C)C)=C2)c1 | 24% | 110%[activator]
CC(C)Oc1ccc(CNC(=O)Cn2c(=O)oc3ccccc32)cc1 | 7% | -2%
CC(=O)SCC(CC(=O)c1ccc(C)cc1)C(=O)O (stereo not given) | -1% | -14%
CCc1nn(C(C)C(=O)N2CCN(c3ccccc3)CC2)c(=O)c2cc3occc3n12 (stereo not given) | 4% | 8%
Cc1cc(C)c2c(=O)cc(C(F)(F)C(F)(F)C(F)(F)C(F)F)oc2c1 | 5% | -6%
Cc1ccc(-c2ccc(CCC(=O)O)n2NC(=O)c2ccc(F)cc2)cc1 | 22% | 4%

A different layout for part of the listing above.
Results follow in this order: 2A firefly	StopGo RLuc
CC(=O)SCC(CC(=O)c1ccc(C)cc1)C(=O)O (stereo not given)
→ -1%	-14%
CCc1nn(C(C)C(=O)N2CCN(c3ccccc3)CC2)c(=O)c2cc3occc3n12 (stereo not given)
→ 4%	8%
Cc1cc(C)c2c(=O)cc(C(F)(F)C(F)(F)C(F)(F)C(F)F)oc2c1
→ 5%	-6%
Cc1ccc(-c2ccc(CCC(=O)O)n2NC(=O)c2ccc(F)cc2)cc1
→ 22%	4%
